# CHT block = inhibitors of human choline transporter CHT | CHT-expressing cells, membrane potential dye, choline response; stronger effect = lower value | 310,000 compounds, 0.86% hits | B-score at 10 µM | High affinity choline transporter 1 (Homo sapiens), Q9GZV3;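 active = B-score over 3 SD under the library average, and starting fluorescence ratio not unusually high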;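 note: choline stimulus applied at its EC90 after an EC20 pre-addition; B-score computed on integrated fluorescence ratio after choline addition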
# Target sequence (Q9GZV3 whole entry, looked up): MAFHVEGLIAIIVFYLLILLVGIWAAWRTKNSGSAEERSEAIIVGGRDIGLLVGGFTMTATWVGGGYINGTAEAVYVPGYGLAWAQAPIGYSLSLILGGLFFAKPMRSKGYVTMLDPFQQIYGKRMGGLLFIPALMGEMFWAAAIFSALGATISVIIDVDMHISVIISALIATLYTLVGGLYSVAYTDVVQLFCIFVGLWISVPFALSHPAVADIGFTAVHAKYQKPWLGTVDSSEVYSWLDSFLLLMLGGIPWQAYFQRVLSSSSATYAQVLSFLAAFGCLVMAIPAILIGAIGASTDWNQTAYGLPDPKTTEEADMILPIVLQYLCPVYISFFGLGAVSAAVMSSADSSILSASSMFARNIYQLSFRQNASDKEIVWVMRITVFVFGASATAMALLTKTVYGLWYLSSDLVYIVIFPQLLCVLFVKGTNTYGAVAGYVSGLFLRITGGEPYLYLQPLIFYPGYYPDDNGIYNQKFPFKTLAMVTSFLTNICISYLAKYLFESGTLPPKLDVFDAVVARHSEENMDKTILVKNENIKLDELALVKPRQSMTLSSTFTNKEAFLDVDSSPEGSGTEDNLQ
# Calls only; i = inactive. Not all compounds are listed, and most or all hits are left out here.
# Sample of the layout:
smiles | CHT block
COc1ccc(NC(=O)C(C)SCc2ccccc2)cc1OC (centres undefined) | i
CCc1ccc(C(=O)COc2ccc(NC(C)=O)cc2)cc1 | i
COc1ccccc1-c1noc(-c2cccnc2)n1 | i
COc1ccc(CCNC(=O)CC2Nc3ccccc3NC2=O)cc1 (centres undefined) | i
CS(=O)(=O)N(CC(=O)NCCSc1ccccn1)c1cccc2ccccc12 | i
O=C(CCc1nnc(COc2ccccc2)o1)NCc1ccc(Cl)s1 | i
COc1cccc(N2CCN(c3c4c(nc5ncnn35)CCC4)CC2)c1 | i
CCC(CC)c1nnc(NC(=O)/C=C/c2ccco2)s1 | i

# The listing, previewed entries included:
smiles | CHT block
COc1ccc(NC(=O)C(C)SCc2ccccc2)cc1OC (centres undefined) | i
CCc1ccc(C(=O)COc2ccc(NC(C)=O)cc2)cc1 | i
COc1ccccc1-c1noc(-c2cccnc2)n1 | i
COc1ccc(CCNC(=O)CC2Nc3ccccc3NC2=O)cc1 (centres undefined) | i
CS(=O)(=O)N(CC(=O)NCCSc1ccccn1)c1cccc2ccccc12 | i
O=C(CCc1nnc(COc2ccccc2)o1)NCc1ccc(Cl)s1 | i
COc1cccc(N2CCN(c3c4c(nc5ncnn35)CCC4)CC2)c1 | i
CCC(CC)c1nnc(NC(=O)/C=C/c2ccco2)s1 | i
O=C(Nc1ccccc1F)c1ccco1 | i
CN1CCN(C(=O)CCn2nc(-c3ccccc3)c3ccccc3c2=O)CC1 | i
O=C(CNS(=O)(=O)c1ccccc1)OCC(=O)c1ccccc1Cl | i
Nc1nnc(C(F)(F)F)s1 | i
CCOC(=O)C1CCCN(Cc2ccccc2C)C1 (centres undefined) | i
Cc1cccc(C(C)(C)C)c1OCCN1CCCC1 | i
COc1cc(/C=C/C2=CC(C)(C)NC(=S)N2)cc(OC)c1OC | i
C=CCOc1ccccc1CN1CCN(CCc2ccccc2)C(CCO)C1 (centres undefined) | i
O=C(CCc1nnc(CCCCc2ccccc2)o1)NC(c1cccnc1)C(F)(F)F (centres undefined) | i
Cc1ccc(SCC(=O)NC(=O)NCc2ccco2)c(C)c1 | i
Cn1c(=O)c(=O)n(C)c2cc(S(=O)(=O)CCC(=O)NCc3ccccc3)ccc21 | i
O=C(CC(c1ccccc1)C1CCCCC1=O)c1ccco1 (centres undefined) | i
O=C1NCCN1Cc1ccc(F)cc1 | i
COc1ccc(C2=NS(=O)(=O)N(C)C(C(=O)Nc3ccc4c(c3)OCO4)=C2)cc1OC | i
S=C(NCc1cccs1)Nc1ccc(Cl)cc1 | i
CCc1noc(C)c1C(=O)Nc1cc(S(=O)(=O)N2CCCCC2)ccc1N(C)C | i
CNc1ncc(C(=O)c2ccccc2)s1 | i
CC(C)(C#CC(O)(c1ccccc1)c1ccccc1)N1CCCC1 | i
Cc1ccc(-c2onc(C)c2C)cc1S(=O)(=O)N1CC(C)Oc2ccccc21 (centres undefined) | i
Cc1ccccc1C(=O)Nc1ccc(Cl)cn1 | i
Cc1cc2c(n1-c1ccc(Br)cc1)CC(C)(C)CC2=O | i
COc1ccc(N2CCN(S(C)(=O)=O)CC2)cc1 | i
COc1ccc(C2=NS(=O)(=O)N(C)C(C(=O)NC(C)c3ccccc3)=C2)cc1OC (centres undefined) | i
CCOC(=O)Cc1csc(NC(=O)COc2ccc(OC)cc2)n1 | i
O=C(Oc1ccc(Cl)c2cccnc12)c1ccco1 | i
O=C(NN1C(=O)C2C3c4ccccc4C(c4ccccc43)C2C1=O)C1CC1 (centres undefined) | i
COc1ccccc1NC(=O)CNC(=O)Cn1cnc2sc(C)c(C)c2c1=O | i
CN=C1S/C(=C\c2c(OC)cc(OC)cc2OC)C(=O)N1C | i
O=C(c1cc2ccccc2oc1=O)N1CCN(S(=O)(=O)c2ccccc2)CC1 | i
Cn1cc(/C=C(\C#N)C(=O)Nc2ncc(Cc3cccc(Cl)c3)s2)c2ccccc21 | i
Cc1cccc(Cn2c(N(C)CCO)nc3c2c(=O)[nH]c(=O)n3C)c1 | i
Cc1ccc(NC(=O)CCC(=O)c2ccc(Br)cc2)cc1 | i
C/C(=N\NC(=O)CN1CCN(S(=O)(=O)c2ccc(C)cc2)CC1)c1cccnc1 | i
Cc1cc2oc(C(=O)Nc3nonc3C)c(C)c2cc1Cl | i
Cc1[nH]c2ccc(C(=O)OC(C)C(=O)NC3(C#N)CCCCC3)cc2c1C (centres undefined) | i
Cc1cccc(C)c1NC(=O)NC1(C(=O)N2CCN3CCCC3C2)CCCCC1 (centres undefined) | i
O=C(O)COc1ccc(Br)cc1CP(=O)(c1ccccc1)c1ccccc1 | i
CCOC(=O)CCC(NC(=O)CC(=O)NC(CCC(=O)OCC)C(=O)OCC)C(=O)OCC (centres undefined) | i
COc1ccccc1C(=O)O/N=C(\N)c1ccccn1 | i
N/C(=N\OC(=O)COc1ccc(Cl)cc1Cl)c1cccnc1 | i
COC(=O)c1ccccc1NC(=O)C1CC(=O)N(C2CCCCC2)C1 (centres undefined) | i
C=CCn1c2ccccc2c2nnc(SCc3ccc4nonc4c3)nc21 | i

# Next records
smiles | CHT block
CCOc1ccc(-c2nn[nH]n2)cc1OCC | i
Cc1ccc(NC(=O)Cn2nnc(C(=O)NCCc3ccccc3)c2N)cc1Cl | i
COC(=O)COc1ccc(C(c2c(C)[nH][nH]c2=O)c2c(C)[nH][nH]c2=O)cc1 | i
Cc1ccc(OCC(=O)Nc2ccc(N3CCN(C(=O)c4ccco4)CC3)cc2)c(C)c1 | i
O=C(Cn1c(=O)n(-c2cccc(Cl)c2)c(=O)n1CC(=O)N1CCCCC1)N1CCCCC1 | i
Brc1ccc(-c2noc(-c3ccccn3)n2)o1 | i
CCn1ncc(S(=O)(=O)N2CCN(c3cccc(OC)c3)CC2)c1C | i
NC1=NN=C(N2N=C(c3ccco3)CC2(O)C(F)(F)F)n2ncnc2C1 (centres undefined) | i
O=C(NCC(c1ccco1)N1CCc2ccccc2C1)c1cccc([N+](=O)[O-])c1 (centres undefined) | i
CC(C)c1ccc(-c2nn[nH]n2)cc1 | i
COCCNC(=O)c1ccc(CS(=O)(=O)c2c(Cl)cccc2Cl)o1 | i
CCc1ccc(NC(=S)N(Cc2ccc(Cl)cc2)Cc2ccc(C(=O)O)cc2)cc1 | i
Cc1ccc(NC(=S)Nc2ccc(F)cc2)cc1 | i
CC1CCCC(C)N1C(=O)CSc1nnc(NC(=O)c2cccs2)s1 (centres undefined) | i
CN(CC(=O)N1CCc2ccccc21)S(=O)(=O)c1ccc(Cl)cc1 | i
O=C(NCc1ccc(Cl)cc1)C1=Cc2cc(Cl)ccc2OC1 | i
COc1ccc2cc(CN(C(=O)Nc3ccccc3)C3CCCC3)c(=O)[nH]c2c1 | i
CCOC(=O)c1cnc(-n2nc(C)cc2C)nc1NNc1cc(-c2ccccc2)nc(C)n1 | i
CCCS(=O)(=O)N1CCc2ccc(NC(=O)c3ccccc3Cl)cc2C1 | i
O=C(c1ccc(CNS(=O)(=O)c2ccc(Br)cc2)cc1)N1CCCC1 | i
Cc1nnc(SCC(=O)N2CCOCC2)n1C | i
CC(=O)Nc1ccc(NC(=O)C2CC(=O)N(c3ccc(Cl)cc3)C2)cc1 (centres undefined) | i
O=C1OC2(CCCCC2)OC(=O)C1=CNc1nccs1 | i
COc1cc(Cl)c(C)cc1NC(=O)CSC | i
O=C(c1ccco1)N1CCN(Cc2cccnc2)CC1 | i
Clc1cccc(Oc2cnns2)c1Cl | i
CCc1nc(N)c(C#N)c(-c2cccn2C)c1C | i
O=C1OC(c2ccccc2)/C(=C(/O)c2ccccc2)C1=O (centres undefined) | i
COc1cccc(-c2[nH]nc3c2C(c2ccoc2)C(C#N)=C(N)O3)c1 (centres undefined) | i
CCOC(=O)c1c(NC(=O)CC2SC(N)=NC2=O)sc(C)c1C (centres undefined) | i
COc1ccccc1N(C)S(=O)(=O)c1ccc(C(=O)OCC(=O)N2CCCCCC2)cc1 | i
Cc1ccc(NC(=O)CCN2C(=O)c3ccncc3C2=O)cc1 | i
Cc1nn(CCC#N)c(C)c1Oc1ccccc1O | i
Cn1nc(NC(=O)CC23CC4CC(CC(C4)C2)C3)c2c(F)cccc21 | i
O=C(c1cnn2c(C(F)F)cc(-c3ccccc3)nc12)N1CCN2CCCC2C1 (centres undefined) | i
O=C(Nc1nc2ccccc2s1)c1ccc(OCC2CCCO2)cc1 (centres undefined) | i
CCn1c(COc2ccc(C)cc2)nnc1SCC(=O)Nc1ccc(S(N)(=O)=O)cc1 | i
Cc1c(NC(=O)c2ccc(S(=O)(=O)N3CCOCC3)cc2)cccc1[N+](=O)[O-] | i
O=C(N/N=C/c1ccco1)c1[nH]ncc1Br | i
O=C(NCc1ccc2c(c1)OCO2)C(C(=O)c1ccccc1)n1cc(Cl)ccc1=O (centres undefined) | i
NC(=O)C1CCN(C(=O)c2ccccc2CCc2ccccc2)CC1 | i
Cc1c(C(=O)NC2CCCc3ccccc32)oc2ccc(S(=O)(=O)N3CCCCC3)cc12 (centres undefined) | i
COc1ccccc1NC(=O)NC1CCCc2ccccc21 (centres undefined) | i
CCCC(C)c1nnc(NC(=O)C(=O)OCC)s1 (centres undefined) | i
COc1ccccc1N1CCN(S(=O)(=O)CCNC(=O)C2CC2)CC1 | i
O=C(Nc1nnc(C2CC2)s1)C1CCCO1 (centres undefined) | i
CCOC(=O)c1c(C)nc2sc(C(=O)Nc3ccc(C(C)=O)cc3)c(N)c2c1-c1ccc(OC)cc1 | i
CCCCC1CCC(C(=O)N(CCOC)c2c(N)n(CCCC)c(=O)[nH]c2=O)CC1 (centres undefined) | i
CCn1ncc([N+](=O)[O-])c1C(=O)Nc1cc(C)on1 | i
CC(C)(C)C(=O)/C=C1\NC(=O)CS1 | i

# The last 5 records of the section before lead into the next:
Compound	CHT block
O=C(Nc1nnc(C2CC2)s1)C1CCCO1 (centres undefined)	i
CCOC(=O)c1c(C)nc2sc(C(=O)Nc3ccc(C(C)=O)cc3)c(N)c2c1-c1ccc(OC)cc1	i
CCCCC1CCC(C(=O)N(CCOC)c2c(N)n(CCCC)c(=O)[nH]c2=O)CC1 (centres undefined)	i
CCn1ncc([N+](=O)[O-])c1C(=O)Nc1cc(C)on1	i
CC(C)(C)C(=O)/C=C1\NC(=O)CS1	i
CCN1CCN(c2nc(Nc3ccc(C)c(C)c3)nc(N)c2[N+](=O)[O-])CC1	i
CCc1ccc(-n2c(=O)c3ccccc3n(CC(=O)C(C)(C)C)c2=O)cc1	i
CC1=C(C(N)=O)C(c2cccnc2)n2nc(SCc3ccccc3Cl)nc2N1 (centres undefined)	i
COc1cc(/C=C/C(=O)NCc2ccccn2)cc(OC)c1OC	i
O=C(Nc1ccc(Br)cc1)N1CCCC(O)C1 (centres undefined)	i
O=C(Nc1ccc2c(c1)OCO2)c1c(F)cccc1F	i
CCn1nc(C(=O)OCC(=O)NCC(C)C)c2ccccc2c1=O	i
CC(/C=C1\SC(=S)N(NC(=O)c2ccc(O)cc2)C1=O)=C\c1ccccc1	i
NC(=O)CN1C(=O)C(=O)N(Cc2ccc(Cl)cc2)C1=O	i
Fc1ccc(-c2nc3n(n2)Cc2ccccc2-3)cc1	i
COc1ccc(OC)c(NC(=O)CN2CCN(C(=O)c3ccco3)CC2)c1	i
O=C(Nc1cccc(Cl)c1)ON=C1c2ccccc2-c2ccccc21	i
CC(C)(C)c1ccc(S(=O)(=O)N2CCC(NC(=O)c3ccco3)CC2)cc1	i
O=C(CCn1c2c(c3ccccc31)CCCC2)NNC(=O)c1ccccc1Cl	i
Cc1cccc(N(C(=O)Nc2ccc(Cl)cc2)C2=NCC(C)S2)n1 (centres undefined)	i
O=C(Nc1ccc(Cl)cc1)N1CCN(Cc2ccc3c(c2)OCO3)CC1	i
COc1ccc(C(=O)/C=C/Nc2ccc(NC(C)=O)cc2)cc1OC	i
CN(C)c1ccc(C(=O)NNC(=O)c2ccc(Cl)cc2)cc1	i
COc1ccc(CCNCc2c(OC)ccc3ccccc23)cc1OC	i
O=[N+]([O-])c1cc(/C=N\O)ccc1Oc1ccc(F)cc1	i
O=C(NCCCN1CCOCC1)C(=O)NCCc1ccccc1	i
O=C(Nc1ccccc1)c1ccc2c(c1)OCCCO2	i
Cc1nn(CCCC(=O)N2CCc3ccccc3C2)c(=O)c2cc3sccc3n12	i
O=C(CCC(=O)N1CCN(c2cccc(Cl)c2)CC1)c1cccs1	i
CCCCNC(=O)CNC(=S)N(CCCN1CCOCC1)Cc1cccs1	i
COc1ccc(C(=O)NC2CCCCC2)cc1S(=O)(=O)N1CCCC1	i
CCOc1ccc(C(=O)NC(=S)Nc2ccc(NC(=O)C(C)C)cc2)cc1[N+](=O)[O-]	i
CN(C(=O)c1ccco1)c1nc(-c2ccc(Cl)cc2)cs1	i
CCn1cc(C(=O)NCc2ccccc2Cl)cn1	i
C/C(O)=C(\N=Nc1cc(C)ccc1O)C(N)=O	i
O=C(COc1ccc2c(-c3ccccc3)cc(=O)oc2c1)NCCN1CCOCC1	i
CNc1ncc(-c2nnnn2-c2ccccc2)c(-c2ccccc2)n1	i
Cc1sc2nc(CSc3ccccc3)nc(NCCN(C)C)c2c1C	i
Cc1nc(C(F)(F)F)ccc1C(=O)NN1CCOCC1	i
COc1ccc(-c2nnc3sc(-c4ccccc4OC)nn23)cc1	i
Cc1nn(Cc2ccc(F)cc2)c2sc(C(=O)Nc3ccc(N4CCOCC4)cc3N3CCOCC3)cc12	i
COc1ccccc1-n1cnc(N)c1C(C)=O	i
Cc1cc(C(=O)NN=C2CCCCCCC2)c2ccccc2n1	i
COc1ccc(CN(Cc2ccncc2)C(=O)CCC(=O)O)cc1	i
CC(C)Cc1nnc(NC(=O)Nc2ccccc2)s1	i
C/C=C/c1ccc(OCC(=O)Nc2ccc(C(N)=O)cc2)c(OC)c1	i
Cc1ccc(NC(=S)NC(=O)c2ccc(-c3ccccc3)cc2)cc1	i
CCc1ccccc1NC(=O)CC(NCc1ccccc1)C(=O)O (centres undefined)	i
CC1CCCC(NS(=O)(=O)c2cc3c(cc2Cl)NC(=O)CO3)C1C (centres undefined)	i

# Compound activity as filed in PubChem BioAssay.
